# PI4K2A inh: blocks human PI4K2A kinase activity; purified PI4K2A, ADP-Glo luminescence, 1 h; hits give low values; activity change, negative = inhibition, % at 76.9 µM; AID 1346378; Q9BTU6; 420,000 tested, 0.13% active; in the data active = activity change below about -50%; inconclusive = mostly about -30% to -49%;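 note: -100% = wells without enzyme as full effect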
# Target sequence (Q9BTU6 whole entry, looked up): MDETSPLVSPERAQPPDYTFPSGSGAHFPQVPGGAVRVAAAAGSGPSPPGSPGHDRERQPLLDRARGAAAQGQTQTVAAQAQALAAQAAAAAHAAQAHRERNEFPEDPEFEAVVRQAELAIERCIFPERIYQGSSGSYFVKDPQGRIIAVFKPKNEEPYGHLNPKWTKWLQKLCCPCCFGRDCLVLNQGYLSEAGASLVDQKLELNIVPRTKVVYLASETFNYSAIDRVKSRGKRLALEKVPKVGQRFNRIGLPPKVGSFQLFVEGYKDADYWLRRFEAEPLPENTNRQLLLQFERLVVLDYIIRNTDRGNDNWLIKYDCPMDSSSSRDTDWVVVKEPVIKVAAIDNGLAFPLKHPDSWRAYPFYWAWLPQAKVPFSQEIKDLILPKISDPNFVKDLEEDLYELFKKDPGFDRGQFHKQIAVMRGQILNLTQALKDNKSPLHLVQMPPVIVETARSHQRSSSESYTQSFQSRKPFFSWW
#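 ADP-Glo luminescence measured ADP generated by PI4K2A enzyme (4 ug/mL before mixing) with 1.2 mM PI substrate (pre-mix) and 300 microM ATP (pre-mix). Tris pH7.5 buffer with MgCl2, Triton X-100; 1 h reaction at ambient temperature.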
# TrxR1 substrate: is turned over as a substrate by rat TrxR1. AID 588456. purified TrxR1 substrate turnover, NADPH consumption readout. 390,000 tested, 0.01% active. O89049. Potency, µM (top dose mostly 114 µM), without a hit: top-dose activity change, negative = substrate turnover; note: potency is the fitted concentration of half-maximal effect; % is set by controls: 0 for no effect and ±100 for the full control effect; nearly all actives have a fitted effect of over 50% in size
#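 Rat TrxR1, dispensed at 90 nM, was prereduced with 400 uM NADPH (final) for 5 min at ~22 deg C, then incubated with compound 15 min before 400 uM selenite. A first-read NADPH fluorescence drop versus no-compound background flagged substrates.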
# TrxR1 inh: blocks rat thioredoxin reductase 1; O89049; recombinant rTrxR1, NADPH fluorescence consumption, selenite substrate; Potency, µM (top dose mostly 114 µM), without a hit: at the top dose activity change, negative = inhibition, hits mostly inhibitors; 390,000 tested, 1% active; AID 588453; note: potency is the fitted concentration of half-maximal effect; % is set by controls: 0 for no effect and ±100 for the full control effect; nearly all actives have a fitted effect of over 65% in size
#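 Rat TrxR1 (90 nM in the dispensed reagent) was pre-reduced with 400 uM NADPH for 5 min at room temperature, then incubated with compound for 15 min. After 400 uM selenite was added, NADPH fluorescence (Ex 340/Em 450 nm) was followed for 8 min.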
# IDH1 R132H inh: human IDH1 R132H inhibition; IDH1-R132H enzyme, NADPH consumption, diaphorase/resazurin fluorescence; O75874; 390,000 tested, 0.093% active; AID 602179; Potency, µM (titrated, usually from 76.6 µM), for the others: at the top dose activity change, negative = inhibition, usual class: inhibitors; note: potency is the fitted concentration of half-maximal effect; % is set by controls: 0 for no effect and ±100 for the full control effect; nearly all actives have a fitted effect of over 65% in size
#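 IDH1-R132H (0.5 ug/mL dispensed) in pH 7.5 Tris buffer was preincubated 30 min with compound, then given a substrate mix of 0.016 mM NADPH and 2 mM alpha-KG for 80 min at room temperature; remaining NADPH was read by diaphorase/resazurin fluorescence.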
# TRHR ag: agonists of human TRH receptor | activation, % at 2 µM | AID 493084 | P34981 | 360,000 tested, 0.18% active | TRHR cells, calcium flux fluo-8, FDSS agonist mode; in the data active = activation above about 30%; note: 0% is about no effect
#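 TRHR-expressing cells loaded with fluo-8 calcium dye; 23 nL library compound pin-transferred, kinetic FDSS fluorescence (Ex 480/Em 530) recorded about 180 s for agonist-induced calcium release, before a 10 nM TRH EC20 addition for potentiator mode.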
# D2 antag: antagonists of human D2 dopamine receptor. HEK293 TREx D2 cells, calcium flux, dopamine EC80. 340,000 tested, 2% active. inhibition, % at 10 µM. P14416; in the data active = inhibition above about 30%; note: 0% is about no effect
# Target sequence (P14416 whole entry, looked up): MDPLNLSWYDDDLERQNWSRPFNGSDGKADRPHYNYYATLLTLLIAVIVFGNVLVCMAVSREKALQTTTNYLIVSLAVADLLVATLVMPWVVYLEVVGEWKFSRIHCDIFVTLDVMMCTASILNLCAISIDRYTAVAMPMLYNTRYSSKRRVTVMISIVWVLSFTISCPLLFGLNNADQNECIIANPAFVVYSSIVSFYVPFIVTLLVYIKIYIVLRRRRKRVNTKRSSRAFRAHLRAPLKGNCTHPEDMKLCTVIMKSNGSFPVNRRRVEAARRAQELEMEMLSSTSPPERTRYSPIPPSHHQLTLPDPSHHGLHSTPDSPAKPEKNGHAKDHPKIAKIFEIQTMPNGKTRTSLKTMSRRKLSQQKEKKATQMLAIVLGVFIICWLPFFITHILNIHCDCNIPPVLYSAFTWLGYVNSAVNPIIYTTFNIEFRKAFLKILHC
#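 Tetracycline-induced HEK293 TREx cells expressing D2 receptor forced-coupled to calcium signalling, loaded with no-wash calcium dye. Compounds added and calcium flux read 180 s, then dopamine added at EC80 and read a further 180 s.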
# TRHR enhancer: TRH receptor (human) allosteric enhancement; 360,000 tested, 0.66% active; enhancement, % at 2 µM; TRHR cells, fluo-8 calcium fluorescence, EC20 TRH enhancement; AID 493056; P34981; in the data active = enhancement above about 30%; note: 0% is about no effect
#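 Enhancer read-out: after compound pinning and an initial kinetic agonist-mode read, an EC20 of TRH (10 nM final) was injected and fluo-8 calcium signal (Ex 480/Em 530) followed at 1 s/cycle for 100 cycles in TRHR-expressing cells.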
# D2 agonist: agonists of human D2 dopamine receptor; P14416; HEK293 T-REx D2 cells, calcium flux agonist mode; activation, % at 2 µM; 340,000 tested, 0.53% active; AID 485358;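 active = activation over 3 SD above normal in the single-dose calcium agonist read, cut at about 30% in these data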; note: 0% is about no effect
#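 Tetracycline-induced HEK293 T-REx cells with force-coupled D2 receptor, plated overnight at 30 C, loaded with no-wash calcium dye. After a 10 s baseline, compound was pin-added and calcium flux read kinetically for 180 s; calcium rises flagged agonists.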
# * marks the source's active call; other numbers are inactive results; ? = inconclusive; . = not tested or not shown; [ ] = remark or other dose. Unless noted, calls come from the whole dose curve; as a rule, active = well fitted inhibition curve with a large enough effect; inconclusive = small, poorly fitted or top-dose-only effect; inactive = no such curve, though single readings can be large or run the other way. Not all compounds are listed (hit frequency here may not be typical).
# Abbreviations: A = PI4K2A inh; B = TrxR1 substrate; C = TrxR1 inh; D = IDH1 R132H inh; E = TRHR ag; F = D2 antag; G = TRHR enhancer; H = D2 agonist
COc1ccc(CCNc2ncnc3sc(C)cc23)cc1OC
  A: 1 | B: -13% | C: ? | D: 8% | E: -1.3 | F: 1 | G: -2 | H: -0.2
Cc1ccc(NC(=O)c2cc(S(=O)(=O)N3CCOCC3)c(Cl)cc2Cl)cc1
  A: -2 | B: 3% | C: 17% | D: . | E: -0.5 | F: . | G: -6 | H: .
Cc1ccc(S(=O)(=O)N(C)C)cc1NC(=O)CSc1nc2ccccc2c(=O)n1CC1CCCO1 (configuration not stated)
  A: -1 | B: -4% | C: -8% | D: 1% | E: -1.3 | F: 24 | G: 0 | H: -1.6
Cc1cc(NS(=O)(=O)c2ccc(NC(=O)Cc3ccccc3)cc2)nc(C)n1
  A: -5 | B: 0% | C: 14% | D: -1% | E: -0.1 | F: 22 | G: 1 | H: 1.1
CN(C)CCCN(C(=O)/C=C/c1cccs1)c1nc2ccc(F)cc2s1
  A: 6 | B: 2% | C: -15% | D: -2% | E: 2.1 | F: -8 | G: -1 | H: 1.0
Cc1nc(-c2ccc(NC(=O)c3ccccc3Br)cc2)cs1
  A: 0 | B: -23%[57.1 µM] | C: 5%[57.1 µM] | D: 13% | E: -0.5 | F: . | G: -6 | H: .
COC(=O)CCC(=O)OC1(C)C(=O)C=C2C=C(C3CC3)N(CCN3CCOCC3)C=C2C1=O (configuration not stated)
  A: -23 | B: -16% | C: -19% | D: 5% | E: 0.0 | F: -14 | G: 7 | H: 0.0
O=C(Nc1nnc(CCN2CCCCC2)s1)c1ccccc1Cl
  A: -2 | B: 4% | C: 16% | D: -13% | E: -0.5 | F: 20 | G: 2 | H: 0.0
COc1ccccc1N1CCN(C(=O)c2cc3ccc4ccc(C)[nH]c4c3n2)CC1
  A: 8 | B: -5% | C: 7% | D: -1% | E: -0.7 | F: . | G: -7 | H: -0.4
CC(C)Cn1cc(NC(=O)Nc2cccc(C(F)(F)F)c2)c2ccccc2c1=O
  A: ? | B: 4% | C: ? | D: 6% | E: -0.4 | F: . | G: -4 | H: -0.6
CCC(=O)OCc1cnc(C)c2oc(=O)c(C(=O)Nc3ccccc3C(F)(F)F)cc12
  A: -4 | B: 6%[57.1 µM] | C: 9%[57.1 µM] | D: 31% | E: -0.5 | F: . | G: -1 | H: 19
O=[N+]([O-])c1c(NCCO)cc(N2CCCCC2)c2nonc12
  A: -3 | B: -3%[57.1 µM] | C: -2%[57.1 µM] | D: 6% | E: 1.1 | F: 20 | G: 6 | H: 0.4
CC(C)C(c1nnnn1C1CCCCC1)N1CCc2ccccc2C1 (configuration not stated)
  A: -1 | B: 12% | C: -6% | D: 5% | E: -0.5 | F: -9 | G: 6 | H: 0.0
CC(C)(C)OC(=O)CNC(=O)c1[nH]cnc1C(=O)NC1CCNCC1
  A: 1 | B: 5%[57.1 µM] | C: 20%[57.1 µM] | D: 4% | E: . | F: . | G: . | H: .
Cc1ccc(S(=O)(=O)Nc2nc3ccccc3nc2NCc2ccco2)cc1C
  A: -11 | B: 34% | C: -6% | D: 0% | E: -0.5 | F: 11 | G: 4 | H: 0.0
CC1=C(C(=O)Nc2cccnc2)C(c2ccc(Cl)cc2)n2nc(SCc3ccccc3)nc2N1 (configuration not stated)
  A: -7 | B: 5%[2.29 µM] | C: 16% | D: -3% | E: 0.3 | F: . | G: -3 | H: .
CN(C)CCNC(=O)CCCNC(=O)Cn1cnc2sc3c(c2c1=O)CCCC3
  A: 2 | B: -4% | C: -13% | D: 5% | E: -0.1 | F: -4 | G: 5 | H: 0.6
COc1ccc(C2NC(c3ccc(OC)cc3OC)C(C)C(=O)C2C)c(OC)c1 (configuration not stated)
  A: 0 | B: 1% | C: 14% | D: -1% | E: 0.1 | F: . | G: 2 | H: .
Cc1cc(N/N=C/c2ccccc2[N+](=O)[O-])nc(-n2nc(C)cc2C)n1
  A: -5 | B: 4%[57.1 µM] | C: 4%[57.1 µM] | D: 5% | E: -1.3 | F: -10 | G: 9 | H: 34*
CC(=O)NS(=O)(=O)c1cccnc1Nc1ccc(Cl)cc1
  A: -2 | B: 1%[57.1 µM] | C: -7%[57.1 µM] | D: 2% | E: 0.5 | F: 9 | G: -4 | H: 0.7
O=C(Cc1cccc(C(F)(F)F)c1)OCC(=O)N1CCN(S(=O)(=O)c2ccc(Cl)cc2)CC1
  A: 4 | B: -1%[57.1 µM] | C: 5%[57.1 µM] | D: 0% | E: 1.9 | F: 17 | G: -10 | H: 1.3
CN(C)S(=O)(=O)NCc1ccc2c(c1)OCO2
  A: 3 | B: 10%[57.1 µM] | C: 16%[57.1 µM] | D: -3% | E: 0.4 | F: -6 | G: -5 | H: 0.2
CC(=O)Oc1c(Cl)cc(N(C(C)=O)S(=O)(=O)c2ccccc2)c2ccccc12
  A: 2 | B: -2% | C: 16% | D: 11% | E: . | F: . | G: . | H: .
CC(=O)Nc1ccc(NC(=O)C(C)Sc2nc3ccccc3c(=O)n2CC2CCCO2)cc1 (configuration not stated)
  A: 0 | B: -10% | C: -8% | D: 4% | E: -0.6 | F: 4 | G: 9 | H: -1.0
CCOc1cccc2cc(-c3nc4sc5c(c4c(=O)[nH]3)CCC(C)C5)c(=O)oc12 (configuration not stated)
  A: 0 | B: 15% | C: 37%[activator] | D: 2% | E: -0.3 | F: . | G: 1 | H: 0.1

# Overlap with the part before: five compounds, followed by the next part.
# Abbreviations: A = PI4K2A inh; B = TrxR1 substrate; C = TrxR1 inh; D = IDH1 R132H inh; E = TRHR ag; F = D2 antag; G = TRHR enhancer; H = D2 agonist
O=C(Cc1cccc(C(F)(F)F)c1)OCC(=O)N1CCN(S(=O)(=O)c2ccc(Cl)cc2)CC1
  A: 4 | B: -1%[57.1 µM] | C: 5%[57.1 µM] | D: 0% | E: 1.9 | F: 17 | G: -10 | H: 1.3
CN(C)S(=O)(=O)NCc1ccc2c(c1)OCO2
  A: 3 | B: 10%[57.1 µM] | C: 16%[57.1 µM] | D: -3% | E: 0.4 | F: -6 | G: -5 | H: 0.2
CC(=O)Oc1c(Cl)cc(N(C(C)=O)S(=O)(=O)c2ccccc2)c2ccccc12
  A: 2 | B: -2% | C: 16% | D: 11% | E: . | F: . | G: . | H: .
CC(=O)Nc1ccc(NC(=O)C(C)Sc2nc3ccccc3c(=O)n2CC2CCCO2)cc1 (configuration not stated)
  A: 0 | B: -10% | C: -8% | D: 4% | E: -0.6 | F: 4 | G: 9 | H: -1.0
CCOc1cccc2cc(-c3nc4sc5c(c4c(=O)[nH]3)CCC(C)C5)c(=O)oc12 (configuration not stated)
  A: 0 | B: 15% | C: 37%[activator] | D: 2% | E: -0.3 | F: . | G: 1 | H: 0.1
CCn1c(=N)c(C(=O)NCc2cccnc2)cc2c(=O)n3cc(C)ccc3nc21
  A: -2 | B: 63%[activator] | C: 24% | D: 4% | E: -0.4 | F: . | G: -4 | H: 1.9
Cc1ccc(S(=O)(=O)Nc2nc3n(n2)C(c2ccc(Cl)cc2)C=C(c2ccccc2)N3)cc1 (configuration not stated)
  A: 1 | B: -3% | C: 4% | D: -5% | E: 0.2 | F: . | G: -3 | H: .
CC(=O)Oc1ccc(C(=O)Nc2ccc(C3(C#N)CCCC3)cc2)cc1
  A: -3 | B: 21% | C: 40%[activator] | D: 8% | E: 0.6 | F: . | G: -4 | H: .
CCN1CCN(c2oc(/C=C/c3ccccc3)nc2C#N)CC1
  A: -1 | B: 354%[activator] | C: 32% | D: 9% | E: -0.8 | F: 1 | G: 9 | H: -1.3
COc1cccc(Nc2nc3ccccc3nc2NS(=O)(=O)c2ccc(NC(C)=O)cc2)c1
  A: -1 | B: -13% | C: -21% | D: 11% | E: -0.2 | F: 16 | G: -3 | H: 7.5
Cc1cc2c(cc1S(=O)(=O)N(C)c1ccccc1)NC(=O)CO2
  A: -5 | B: -2%[57.1 µM] | C: 1%[57.1 µM] | D: 0% | E: 0.4 | F: 7 | G: 6 | H: 1.2
COc1ccc(NC(=O)C(C)N2c3cccc4cccc(c34)S2(=O)=O)cc1 (configuration not stated)
  A: -1 | B: 16% | C: 33% | D: 7% | E: -0.6 | F: -4 | G: -3 | H: 0.3
COC(=O)c1ccc(NC(=O)C(=O)N2CCN(C(=S)Nc3ccc(OC)cc3)CC2)cc1
  A: -4 | B: -1% | C: -29% | D: 1% | E: 0.1 | F: 7 | G: 2 | H: 0.7
NS(=O)(=O)c1cccnc1Nc1cccc(Cl)c1Cl
  A: 2 | B: -6%[57.1 µM] | C: 9%[57.1 µM] | D: 19% | E: 0.5 | F: 6 | G: 2 | H: 0.4
CCN(CC)c1ccc(/C=C2\SC(=O)N(C(C)C)C2=O)o1
  A: 3 | B: -19%[57.1 µM] | C: 4µM* | D: 4% | E: 13 | F: -13 | G: -3 | H: 19
CS(=O)(=O)c1ccc(-c2csc(-c3cccnc3)n2)cc1
  A: -3 | B: 4% | C: 13% | D: 5% | E: -0.1 | F: 13 | G: -2 | H: -0.2
CCOC(=O)c1ccc(-c2ccc(C=O)o2)cc1
  A: 4 | B: 72%[activator][57.1 µM] | C: ? | D: 3% | E: -0.2 | F: -9 | G: -1 | H: -1.4

# 2 of the compounds above, with each value named.
compound: COC(=O)c1ccc(NC(=O)C(=O)N2CCN(C(=S)Nc3ccc(OC)cc3)CC2)cc1
- PI4K2A inh: -4
- TrxR1 substrate: -1%
- TrxR1 inh: -29%
- IDH1 R132H inh: 1%
- TRHR ag: 0.1
- D2 antag: 7
- TRHR enhancer: 2
- D2 agonist: 0.7

compound: COc1cccc(Nc2nc3ccccc3nc2NS(=O)(=O)c2ccc(NC(C)=O)cc2)c1
- PI4K2A inh: -1
- TrxR1 substrate: -13%
- TrxR1 inh: -21%
- IDH1 R132H inh: 11%
- TRHR ag: -0.2
- D2 antag: 16
- TRHR enhancer: -3
- D2 agonist: 7.5

# Bioassay records deposited in PubChem by National Center for Advancing Translational Sciences (NCATS).
